PV pol inh = poliovirus RdRp elongation inhibitors, primary screen, biochemical, fluorescence polarization, total intensity; poliovirus polymerase elongation; active compounds read low; % elongation, % (compound at 16.7 µg/mL); 150,000 tested, 0.66% active; AID 588519, 2011; in the data active means % elongation below about 90%; further: some results filed as inactive read as strong as hits
Target sequence (P03300 1749-2209 limits assumed): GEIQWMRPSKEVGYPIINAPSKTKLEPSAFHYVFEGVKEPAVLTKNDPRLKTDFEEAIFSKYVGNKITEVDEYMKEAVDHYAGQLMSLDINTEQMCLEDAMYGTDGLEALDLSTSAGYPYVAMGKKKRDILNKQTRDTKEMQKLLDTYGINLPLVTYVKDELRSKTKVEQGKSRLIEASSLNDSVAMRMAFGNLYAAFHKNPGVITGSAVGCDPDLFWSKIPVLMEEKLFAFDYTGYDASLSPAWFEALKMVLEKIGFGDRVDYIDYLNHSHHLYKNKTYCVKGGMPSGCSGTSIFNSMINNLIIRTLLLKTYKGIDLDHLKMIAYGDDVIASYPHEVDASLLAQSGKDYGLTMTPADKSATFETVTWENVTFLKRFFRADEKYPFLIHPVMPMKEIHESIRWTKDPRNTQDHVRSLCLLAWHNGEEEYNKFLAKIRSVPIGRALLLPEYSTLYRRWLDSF
PV pol inh intensity = recorded beside PV pol inh, whose call it bears; % elongation; measured here: total intensity read-out; formula for this scale not given here;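 total fluorescence in place of polarization; lower means less elongation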
Starred values were filed as active, the others as inactive.

Structure	PV pol inh	PV pol inh intensity
CC(C)(C)OC(=O)N1CCC(c2c(C(=O)N3CCN(c4cccc(Cl)c4)CC3)cnn2-c2cccc(Cl)c2)CC1	108	94
CC(=O)Nc1ccc(NC(=O)CCCn2nc(C)c3sc4ccccc4c3c2=O)cc1	114	115
Cc1cccc(Nc2c3c(nc4nncn24)CCC3)c1C	114	116
CCOc1cc(CNc2ccc(O)cc2)cc(Cl)c1OCc1ccccc1	98	97
Cc1cccc(N2C(=O)N(Cc3cccc(C#N)c3)c3ccccc3S2(=O)=O)c1	103	108
COc1cccc(NS(=O)(=O)c2ccc3[nH]cc(C(=O)NC4CCCCC4)c(=O)c3c2)c1	107	106
Cc1cc(F)ccc1NS(=O)(=O)c1ccc(-n2cccn2)cc1	100	107
Cc1cc(NC(=O)c2cc(Cl)ccc2Cl)ccc1-c1cc2ccccc2oc1=O	106	110
Cc1ccc(C(c2c(O)cc(C)n(Cc3ccco3)c2=O)N2CCC(C)CC2)cc1 (stereo not given)	105	105
Cc1ccc(NC(=O)CN2C(=O)CCc3cc(S(=O)(=O)N4CCCCC4)ccc32)cc1C	109	95
Cc1ccc(Nc2nnc(-c3ccc(C)c(S(=O)(=O)N4CCN(C)CC4)c3)c3ccccc23)c(C)c1	106	108
CCn1c(-c2ccc(S(=O)(=O)N3CCOCC3)cc2)csc1=Nc1ccc(C)c(Cl)c1	105	105
CC(C)Cn1c(=O)c2ccccc2n2c(CCC(=O)N3CCN(c4cccc(Cl)c4)CC3)nnc12	106	109
COc1ccc(OC)c(NC(=O)CSC2=Nc3ccccc3C3=NC(CCC(=O)NC4CCCCC4)C(=O)N23)c1 (stereo not given)	108	112
Cc1ccc(-n2c(=O)c3cccnc3n2CC(=O)Nc2ccc(Br)cc2)cc1C	110	111
CCCCNC(=O)CCn1c(=O)c2ccccc2n(Cc2cc(C)ccc2C)c1=O	107	105
COc1ccc(CNC(=O)c2cc3cc4ccc(C)cc4nc3o2)cc1	114	115
CCOc1ccccc1NC(=O)c1c(NC(=O)c2ccncc2)sc2c1CCC(C(C)(C)C)C2 (stereo not given)	98	90
COc1cccc(CNC(=O)c2ccc(CS(=O)Cc3ccc(Cl)cc3)o2)c1 (stereo not given)	109	105
Cc1c(C(=O)NCc2cccc(Br)c2)oc2ccc3c(c12)C(=O)CC(C)(C)O3	112	114
COc1cc(Cl)c(C)cc1NC(=O)Cn1ncc2c(=O)oc3ccccc3c21	114	111
COC(=O)c1scc(-c2ccc(C)cc2)c1S(=O)(=O)N1CCN(c2ccc(F)cc2)CC1	106	113
CCC(=O)N1CCc2cc(OC)c(OC)cc2C1COc1ccccc1OC (stereo not given)	107	110
O=C(NCc1cccs1)c1ccc(Cn2c(SCc3ccccc3)nc3cccnc32)cc1	107	108
Cc1ccc(Cl)cc1N1CCN(C(=O)CCNS(=O)(=O)c2ccc3c(c2)CCN3C(=O)C2CC2)CC1	108	108
CC(C)(C)c1ccc(C(=O)Nc2onc3c2CCCC3)cc1	103	108
CN(C)c1ccc(C(CNC(=O)c2c(F)cccc2Cl)N2CCOCC2)cc1 (stereo not given)	104	109
Cc1nc(-c2ccc(F)cc2)sc1CCNC(=O)c1ccc(C(C)(C)C)cc1	107	101
O=C(CCS(=O)(=O)c1cc2c(cc1Cl)NC(=O)CO2)NCc1ccccc1	111	103
Cc1ccc(N2CCN(C(=O)NCc3noc4ccc(C)cc34)CC2)c(C)c1	111	106

Following part:
Structure	PV pol inh	PV pol inh intensity
CN(C)CCN(Cc1ccccc1)S(=O)(=O)c1ccc2[nH]c(=O)ccc2c1	109	112
Cc1cc(-c2ccc(C)c(S(=O)(=O)N(C(C)C)C3CCCCC3)c2)on1	106	111
Cc1ccc(Cl)cc1NC(=O)C1CCN(C(=O)c2cnn(-c3ccccc3)c2-n2cccc2)CC1	104	106
COc1cccc2sc(N(Cc3cccnc3)C(=O)C3CCCCC3)nc12	112	113
Cc1cc(C)cc(Nc2cc(C)nc3nc(-c4ccco4)nn23)c1	112	112
O=C(NCCc1ccccc1)C1CCN(Cc2cc3ccccc3n2Cc2cccc(Cl)c2)CC1	106	114
Cc1oc2ccc(O)c(CN3CCCC3)c2c1C(=O)Nc1ccc(C(C)C)cc1	103	100
O=C(NCCc1ccccc1)C(=O)Nc1cccc(Br)c1	102	100
O=C(NC1CC(=O)N(c2cccc(F)c2)C1)c1ccc(S(=O)(=O)N2CCCCC2)cc1 (stereo not given)	107	110
COc1ccc(OC)c(NC(=O)c2c(NCc3sccc3C)sc3c2CCCCC3)c1	105	118
COC(=O)C(CCSC)NC(=O)c1c(C)oc2ncn(CC(C)C)c(=O)c12 (stereo not given)	107	110
CCOC(=O)c1ccc(NC(=O)COC(=O)c2cn(CC)c3nc(C)ccc3c2=O)cc1	103	105
COc1cccc(C2CC(=O)Nc3c2c(=O)n(C)c2nc4ccccc4n32)c1OC (stereo not given)	101	105
Cc1ccc(NC(=O)c2ccc(-c3ccccc3)s2)cc1	103	107
COc1ccc(NC(=O)CCc2nnc3n(Cc4ccccc4Cl)c(=O)c4ccccc4n23)cc1	106	111
Cc1cc(C)n(-c2nc3ccccc3nc2Nc2ccc(Cl)c(Cl)c2)n1	99	102
Cn1cnc(S(=O)(=O)N2CCC(C(=O)Nc3ccc(Cl)c(C(F)(F)F)c3)CC2)c1	113	110
COc1ccc(OC)c(NC(=O)Cn2cnc3onc(-c4ccc(Cl)cc4)c3c2=O)c1	99	96
CCOC(=O)c1ccc(NC(=O)CCCn2nc(C)c3sc4ccccc4c3c2=O)cc1	109	101
Cc1ccccc1Cn1c(CN2CCC(C(=O)NCc3ccc(Cl)cc3)CC2)cc2ccccc21	111	105
COCCNC(=O)CCN1C(=O)c2cccnc2Oc2ccc(C)cc21	109	115
Cc1cccc2c(=O)cc(CSc3ccccc3NC(=O)c3cccc(F)c3)[nH]c12	106	99
COc1cccc(C(=O)N2c3cc(C)ccc3C(C)(c3ccccc3)CC2(C)C)c1 (stereo not given)	107	110
CC(CNC(=O)c1ccc(Cn2c(=O)c3cccn3c3cccnc32)cc1)c1ccccc1 (stereo not given)	111	111
Cc1cc(-c2ccc(C)c(S(=O)(=O)NCC3CCN(Cc4ccccc4F)CC3)c2)on1	106	110
COC(=O)c1sccc1S(=O)(=O)N(CC(=O)Nc1ccc(C)c(F)c1)c1ccc(C)c(C)c1	106	110
CCOc1ccccc1NC(=O)Cn1nc2c3cc(F)ccc3n(Cc3cccc(C)c3)cc-2c1=O	117	115
COc1ccc(C)cc1NC(=O)c1oc2ccc(S(=O)(=O)N(C)C3CCCCC3)cc2c1C	115	106
CCOC(=O)c1c(C)oc2nc(C)nc(NCC3CCN(Cc4cccc(C)c4)CC3)c12	100	99
Cc1ccc(C)c(S(=O)(=O)c2nnn3c2nc(N2CCN(C)CC2)c2sccc23)c1	111	99

Filtered by structure, the compounds so far with a Cl atom.
Structure	PV pol inh	PV pol inh intensity
CC(C)(C)OC(=O)N1CCC(c2c(C(=O)N3CCN(c4cccc(Cl)c4)CC3)cnn2-c2cccc(Cl)c2)CC1	108	94
CCOc1cc(CNc2ccc(O)cc2)cc(Cl)c1OCc1ccccc1	98	97
Cc1cc(NC(=O)c2cc(Cl)ccc2Cl)ccc1-c1cc2ccccc2oc1=O	106	110
CCn1c(-c2ccc(S(=O)(=O)N3CCOCC3)cc2)csc1=Nc1ccc(C)c(Cl)c1	105	105
CC(C)Cn1c(=O)c2ccccc2n2c(CCC(=O)N3CCN(c4cccc(Cl)c4)CC3)nnc12	106	109
COc1cccc(CNC(=O)c2ccc(CS(=O)Cc3ccc(Cl)cc3)o2)c1 (stereo not given)	109	105
COc1cc(Cl)c(C)cc1NC(=O)Cn1ncc2c(=O)oc3ccccc3c21	114	111
Cc1ccc(Cl)cc1N1CCN(C(=O)CCNS(=O)(=O)c2ccc3c(c2)CCN3C(=O)C2CC2)CC1	108	108
CN(C)c1ccc(C(CNC(=O)c2c(F)cccc2Cl)N2CCOCC2)cc1 (stereo not given)	104	109
O=C(CCS(=O)(=O)c1cc2c(cc1Cl)NC(=O)CO2)NCc1ccccc1	111	103
Cc1ccc(Cl)cc1NC(=O)C1CCN(C(=O)c2cnn(-c3ccccc3)c2-n2cccc2)CC1	104	106
O=C(NCCc1ccccc1)C1CCN(Cc2cc3ccccc3n2Cc2cccc(Cl)c2)CC1	106	114
COc1ccc(NC(=O)CCc2nnc3n(Cc4ccccc4Cl)c(=O)c4ccccc4n23)cc1	106	111
Cc1cc(C)n(-c2nc3ccccc3nc2Nc2ccc(Cl)c(Cl)c2)n1	99	102
Cn1cnc(S(=O)(=O)N2CCC(C(=O)Nc3ccc(Cl)c(C(F)(F)F)c3)CC2)c1	113	110
COc1ccc(OC)c(NC(=O)Cn2cnc3onc(-c4ccc(Cl)cc4)c3c2=O)c1	99	96
Cc1ccccc1Cn1c(CN2CCC(C(=O)NCc3ccc(Cl)cc3)CC2)cc2ccccc21	111	105

Remaining list, next part
Structure	PV pol inh	PV pol inh intensity
COc1ccc(Nc2cc(C)c3cc(NC(=O)Cc4c(F)cccc4Cl)ccc3n2)cc1	106	107
Cc1cc(C)cc(NC(=O)Nc2c[nH]c(=O)[nH]c2=O)c1	105	109
COc1ccc(NC(=O)C(C)n2c(C)c3cnn(-c4ccccc4)c(=O)c3c2C)cc1Cl (stereo not given)	108	109
CCCCCN1C(C(=O)c2ccccc2)=C(NC(=O)c2ccc(OC)cc2)c2ccccc2S1(=O)=O	104	105
CCCNC(=O)CSc1nc2ccccc2nc1Cc1ccc(Cl)cc1	96	105
COC(=O)C1=C(c2ccccc2)c2ccccc2S(=O)(=O)N1CC(=O)Nc1ccc(OC)cc1OC	103	101
O=C(CSc1nc(=O)[nH]c2c1CCCC2)NCc1ccc(Cl)cc1	108	107
Cc1cc(=O)[nH]c2nnc(SCC(=O)Nc3cc(C(F)(F)F)ccc3Cl)n12	114	110
CCCCOC(=O)c1ccc(NC(=O)c2ccc3c(c2)CCN3S(C)(=O)=O)cc1	101	95
CCOc1ccc(C(=O)Nc2ccc(-c3nnc4n3CCCCC4)cc2)cc1OCC	105	110
Cc1ccc(CNS(=O)(=O)c2ccc(-c3cc(C(F)(F)F)on3)s2)cc1	108	112
CCOc1ccc(Nc2c(S(=O)(=O)c3ccc(Cl)cc3)cnc3ccc(OCC)cc23)cc1	107	109
CCCn1cc(S(=O)(=O)c2ccc(OC)cc2)c(=O)c2cc(F)c(N3CCCC(C)C3)cc21 (stereo not given)	103	96
CCOC(=O)c1ccccc1NC(=O)CSc1ccc(-c2sc(-c3ccccc3)nc2C)nn1	110	111
CC(=O)c1[nH]c(C)c(C(=O)NCc2ccc(Cl)cc2)c1C	104	95
COc1ccc(-n2c(=O)c3c4c(sc3n(CC(=O)C(C)(C)C)c2=O)CCCC4)c(OC)c1	109	110
COc1ccc(OC)c(NC(=O)CCc2nc(-c3ccc(C)cc3)no2)c1	105	108
Cc1ccc(-c2nc3ncccc3o2)cc1NC(=O)c1ccc(-c2cccc(Cl)c2C)o1	107	111
CC1=C(C(=O)Nc2ccc(F)cc2F)C2(CCN(C(C)C)CC2)OC1=O	111	111
COC(=O)c1ccc(Cl)cc1NC(=O)NCCc1c(C)nn(C)c1C	105	111
O=C(CCS(=O)(=O)c1ccc(Br)s1)Nc1c(F)cccc1F	103	109
Nc1cc(=O)nc(SCC(=O)Nc2ccccc2)n1CCc1ccccc1	104	107
CCOC(=O)c1cc(-c2ccc(F)cc2)n(CC(=O)NCc2ccc(OC)cc2)c1C	110	116
CC(=O)N1c2ccc(S(=O)(=O)NCC3CCC(C(=O)Nc4cc(C)ccc4C)CC3)cc2CC1C (stereo not given)	117	110
Cn1c2ccccc2c2cnn(CC(=O)Nc3ccccc3C(F)(F)F)c(=O)c21	105	106
COCCCNC(=O)C(C)n1c2ccccc2c2cnn(C)c(=O)c21 (stereo not given)	109	113
CCOc1ccccc1C(=O)Nc1cc2c(cc1N1CCOCC1)n(C)c(=O)n2C	101	104
Cc1cccn2c(Nc3ccccc3)c(-c3cccs3)nc12	111	111

Compound activity as filed in PubChem.

Some of the compounds tested; the hit share may differ from the screen's.
